Screening data deposited in PubChem by several laboratories.
eIF4H FP inh – inhibitors of RNA binding by human eIF4H; inhibition, % at 35 µM; eIF4H fluorescence polarization binding assay; hit rate 0.94% among 290,000; Q15056;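 active = 50% or more with normal probe brightness, or confirmed in later tests; inconclusive = above 50% with abnormal brightness, or retests that disagree; inactive = below 50% or failed in later tests; about a fifth of its hits are not listed in these tables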;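 also: calls also rest on retests at 20 µM and on dose response follow-up; 0% = protein and probe with vehicle and 100% = probe without protein; strong numbers were not always called active; many hits fall short of the cut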
Rce1 inh – inhibitors of yeast Ras-converting enzyme. calls only. Q03530. hit rate 0.27% among 290,000. yeast membranes, quenched prenylated peptide cleavage fluorescence;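 active = fall in fluorescence gain of 50% or more versus controls, with final raw signal at or below 3038400; inconclusive = same 50% fall but final raw signal above 3038400; inactive = fall in fluorescence gain under 50%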;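 also: plate controls were neutral control wells for no effect and wells lacking membranes for full effect; tested at 10 µM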
Target sequence (Q03530 whole entry, looked up): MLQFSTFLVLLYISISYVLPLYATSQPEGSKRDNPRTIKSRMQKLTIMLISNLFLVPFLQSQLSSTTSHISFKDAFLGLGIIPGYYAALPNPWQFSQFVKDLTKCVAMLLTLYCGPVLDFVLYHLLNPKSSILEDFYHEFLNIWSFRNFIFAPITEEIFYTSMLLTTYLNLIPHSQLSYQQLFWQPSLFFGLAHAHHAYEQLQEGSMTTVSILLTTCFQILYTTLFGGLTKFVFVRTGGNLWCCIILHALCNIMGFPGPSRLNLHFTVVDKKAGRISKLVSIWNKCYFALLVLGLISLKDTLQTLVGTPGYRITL
MT1-MMP act inh – MT1-MMP (human) activation inhibition. P50281. HT1080 RFP-PRO-GFP cells, GFP/RFP ratio fluorescence, overnight; percent of plate control window, DMSO zero. GFP/RFP ratio change, % at 20 µM. hit rate 0.061% among 360,000;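 active = GFP/RFP ratio change of at least 30% with cell ATP level not reduced by more than half and red fluorescence within 50% of control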; also: strong numbers were not always called active
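Material – HT1080 RFP-PRO-GFP cells · Control set – DMSO wells and RFP-L50D-GFP cells · Incubation – overnight cell settling, then overnight compound exposure, 37 °C, 5% CO2 · Compound dosing – single-point 20 µM compound, 1% DMSO · Read-out – GFP/RFP fluorescence ratio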
Env fusion inh – HIV envelope-mediated fusion inhibition; inhibition, % at 12.3 µM; HeLa-JRFL Env/CEM21 cell fusion, luciferase; hit rate 1.1% among 360,000;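 active = mean replicate inhibition score of at least 50 and every replicate individually at or above 50; inconclusive = only one of the two criteria met; inactive = mean below 50 and not all replicates reaching 50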;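 also: 0% = plate neutral controls and 100% = maraviroc near 300 nM; one replicate is shown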
PABP polyA inh – PABP-poly(A) binding inhibition | PABP-poly(A) RNA binding, fluorescence polarization | inhibition, % at 35 µM | hit rate 1% among 290,000 | AID 2014;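 active = 50% or more with normal probe brightness, or confirmed in later tests; inconclusive = above 50% with abnormal brightness, or retests that disagree; inactive = below 50% or failed in later tests; about a fifth of its hits are not listed in these tables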;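 also: calls also rest on retests at 20 µM and on dose response follow-up; controls were probe without protein and protein plus probe with vehicle; some compounds called inactive have numbers as strong as hits; many hits fall short of the cut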
Target sequence (P11940 whole entry, looked up): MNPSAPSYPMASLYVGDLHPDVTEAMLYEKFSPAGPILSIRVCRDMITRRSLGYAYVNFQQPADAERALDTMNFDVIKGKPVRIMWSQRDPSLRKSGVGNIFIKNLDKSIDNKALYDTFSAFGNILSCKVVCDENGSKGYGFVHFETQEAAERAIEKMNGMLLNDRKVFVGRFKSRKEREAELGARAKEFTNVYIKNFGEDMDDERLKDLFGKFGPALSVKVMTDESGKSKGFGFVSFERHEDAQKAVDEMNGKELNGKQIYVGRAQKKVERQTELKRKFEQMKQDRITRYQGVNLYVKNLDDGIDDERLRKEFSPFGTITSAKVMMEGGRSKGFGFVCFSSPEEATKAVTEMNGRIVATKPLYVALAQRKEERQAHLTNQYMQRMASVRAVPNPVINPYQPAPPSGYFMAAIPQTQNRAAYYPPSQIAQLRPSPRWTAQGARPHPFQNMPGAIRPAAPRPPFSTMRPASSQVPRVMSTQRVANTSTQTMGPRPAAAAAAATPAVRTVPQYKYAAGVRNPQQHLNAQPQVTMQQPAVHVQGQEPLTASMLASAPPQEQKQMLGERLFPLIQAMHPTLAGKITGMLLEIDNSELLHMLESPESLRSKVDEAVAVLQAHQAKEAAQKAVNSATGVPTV
CSC inhib – cancer stem cell inhibition. cancer stem cell-like cells viability, luminescence. inhibition, % at 7.5 µM. hit rate 1.1% among 300,000. AID 2717;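 active = mean at 75% or more and at least half the replicates too; inconclusive = mean and replicates disagree; tested in HMLE shEcad cells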;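 also: 0% = median of negative and 100% = median of positive control wells; the first replicate is given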
Yeast UUG start – modulators of start codon recognition fidelity in yeast; S. cerevisiae UUG-firefly luciferase reporter, luminescence/redox ratio; activity score, % at 18.7 µM; hit rate 0.13% among 350,000;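 active = replicate mean at a twofold rise or more, about +100% in these data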;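 also: firefly luciferase made from a UUG start codon reports start codon fidelity; reporter light over untreated wells divided by growth signal over untreated wells; some hits fall short of that in this replicate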
eIF4H FP inh retest – also measured in eIF4H FP inh; calls as there; inhibition, %; compound at 20 µM; confirmation average;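 mean of two retest wells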
PABP polyA inh retest – also measured in PABP polyA inh; calls as there; inhibition, %; compound at 20 µM; confirmation repeats;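 mean of two retest wells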
MT1-MMP act inh RFP – further read-out of MT1-MMP act inh, marked with its call; RFP signal change, %; measured here: RFP expression control read;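 0 = vehicle wells; hits needed this value within 50% of zero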
An asterisk follows results filed as active; i = inactive; ? = inconclusive; . = no result given; & = joins results of further samples.

SMILES | eIF4H FP inh | Rce1 inh | MT1-MMP act inh | MT1-MMP act inh RFP | Env fusion inh | PABP polyA inh | CSC inhib | Yeast UUG start | others
O=C(COc1ccc(Cl)cc1)N1CCN(c2ccc([N+](=O)[O-])c(N3CCCCC3)c2)CC1 | -4 | i | 0 | -3 | . | -10 | 16 | -11
O=C(CCNC(=O)c1ccco1)Nc1cccc(C(F)(F)F)c1 | -13 | . | -3 | -3 | -7 | -5 | -13 | 3
Cc1ccc(NC(=O)COC(=O)CN2C(=O)NC(C)(C)C2=O)cc1S(=O)(=O)N1CCOCC1 | 7 | i | 1 | 1 | 15 | 19 | 1 | .
COc1ccc(C)cc1S(=O)(=O)N(C)CC(=O)NC1CCCCCC1 | -2 | i | -1 | 2 | 9 | 47 | -5 | .
COc1cc(NC(=O)c2cc(-c3ccc(C)cc3)on2)cc(OC)c1OC | 1 | i | -3 | -8 | 7 | 4 | 18 | -20
CC(=O)c1ccc(N2CCN(C(=O)c3ccco3)CC2)c(F)c1 | -4 | i | 0 | 0 | . | -11 | -8 | 11
COc1ccc(N(CC(=O)NCc2ccc3c(c2)OCO3)S(=O)(=O)c2ccccc2[N+](=O)[O-])c(OC)c1 | -12 | i | 0 | 0 | -7 | 2 | -16 | -8
CC1(C)OC(C)(C)/C(=C/Nc2ccccc2)C1=O | 0 | i | 0 | 1 | . | -6 | -12 | .
CCN(CC)c1ccc(C=Nc2ccc(N(C)C)cc2)c(O)c1 | -5 | i | 30 | 28 | -281 | -12 | 8 | .
Cc1cccc(-c2ncc(CN3CCC(CO)(CCCc4ccccc4)CC3)cn2)c1 | -1 | i | 1 | -10 | 22 | 3 | 37 | .
O=C(N/N=C/c1cccnc1)c1ccc2c(c1)OCO2 | -6 | i | 4 | 3 | -1 | 7 | -4 | -9
CCCCc1cc2c(c(NC(C)=O)n1)c(=O)oc1ccccc12 | 0 | i | . | . | . | -15 | -7 | .
NC(=O)CCn1nc(-c2ccc(Cl)cc2)c2ccccc2c1=O | -4 | i | -5 | -2 | . | -9 | 4 | -1
COc1ccc(N(C)S(=O)(=O)c2cccc3nsnc23)cc1 | 17 | i | 2 | 2 | 14 | -5 | -1 | .
O=C(C1CCC1)N1CCC(O)(c2cccc(F)c2)CC1 | 2 | i | -1 | -1 | 10 | 6 | -10 | .
CSc1n[nH]c(NCc2cccs2)n1 | 3 | i | 2 | 0 | . | -2 | -4 | -7
Nc1c(C(=O)O)sc2nc(-c3ccc(F)cc3)cc(-c3ccccc3)c12 | 81 | i | -18 | 2 | 2 | 48* | 13 | -32 | eIF4H FP inh retest=28;PABP polyA inh retest=71*
COc1cc(NC(=O)CCCNC(=O)Cn2cnc3sc4c(c3c2=O)CCCC4)cc(OC)c1OC | 12 | i | 5 | 3 | -9 | -1 | -7 | -8
O=C(CSc1nnnn1-c1ccc(F)cc1)Nc1ccc(N2CCOCC2)c(Cl)c1 | 2 | i | 0 | 1 | 11 | -1 | 3 | -1
Cc1ccc(C(=O)N(C)Cc2nc3ccccc3c(=O)[nH]2)cc1NC(=O)c1ccco1 | . | . | -2 | -2 | -1 | . | -10 | 0
Cc1ccc(S(=O)(=O)/N=C(/Nc2ccccn2)c2ccc(Cl)cc2)cc1 | 7 | i | -1 | 2 | . | -9 | -8 | -12
Cc1nc(C)c(C(=O)Nc2ncc([N+](=O)[O-])s2)o1 | 54 | i | -2 | 0 | 13 | 8.2* | 12 | -38 | eIF4H FP inh retest=37;PABP polyA inh retest=61*
COCc1cccc(C2=CC(=O)C[C@H](c3ccc(F)cc3)C2)c1 | . | . | 3 | -3 | -21 | . | -4 | -7
N#CC1=C(N)SC(N)=C(C#N)C1c1c(Cl)cccc1Cl | 19 | i | -53 | 4 | . | 31 | 33 | -2
CN(C)C(=O)c1cccc(-c2cnc3c(NC=O)cc(-c4ccccc4Cl)cn23)c1 | . | . | -51 | -10 | -13 | . | . | -17
COCCn1c(SCC(=O)Nc2cc(C(C)(C)C)nn2-c2ccccc2)nnc1-c1ccncc1 | 7 | i | 2 | 1 | 7 | 0 | -16 | .
COc1ccc(NC(=O)CN(C)S(=O)(=O)c2ccc3c(c2)CC(C)N3C(C)=O)cc1OC (stereo unspecified) | -8 | i | -1 | -3 | -2 | 4 | 4 | -6
CC(=O)c1ccccc1OCCOCCOc1ccccc1C(C)=O | -6 | i | 3 | -10 | -43 | 44 | -6 | 0
CC(NC(=O)C1(S(=O)(=O)c2ccc(Cl)cc2)CC1)c1ccccc1 (stereo unspecified) | 1 | i | 1 | -2 | -4 | 4 | -9 | .
Cc1ccn2c(NC3CCCC3)c(-c3ccncc3)nc2c1 | -1 | i | 4 | 0 | 7 | -1 | -8 | -16
O=C(NC1CCN(Cc2ccccc2)CC1)c1ccc(Cl)cc1Cl | 11 | i | 2 | -1 | -18 | -4 | 6 | -14
CCCC(=O)N(Cc1cccnc1)c1nc2c(OC)ccc(Cl)c2s1 | -6 | i | -1 | -3 | -5 | 1 | -6 | 1
O=C(Cc1ccccc1)Nc1ccc2[nH]ncc2c1 | 2 | i | -5 | -9 | 7 | 12 | -3 | -13
Cc1nn(-c2ccccc2)c(OC(=O)c2cccs2)c1S(=O)(=O)c1ccccc1 | -6 | i | 3 | 16 | . | -6 | 0 | .
CN(C(=O)COC(=O)c1cccc(Cl)c1)C1CCS(=O)(=O)C1 (stereo unspecified) | . | . | 5 | 6 | . | . | -8 | -6
CCOC(=O)C1(C)CCN1C(=O)c1ccccc1C(F)(F)F (stereo unspecified) | . | . | -2 | 1 | -4 | . | . | -5
Cc1ccc(NC(=S)NN2CCOCC2)c(C)c1 | -7 | i | 4 | 4 | . | -6 | 1 | .
Cc1nc(SCC(=O)NC2CCCC2)[nH]c(=O)c1C | 6 | i | 2 | 4 | 11 | 4 | . | -10
CCOC(=O)CN1C(=O)N[C@@H](c2ccccc2)C(C(C)=O)=C1C | -2 | . | -4 | 0 | . | 5 | 3 | -17
O=C(Cn1[nH]c(=O)c2ccccc2c1=O)OCC(=O)c1ccccc1Cl | . | . | 4 | 6 | 6 | . | -2 | -13

The closing 2 entries of the part above come first, to join the parts.
SMILES | eIF4H FP inh | Rce1 inh | MT1-MMP act inh | MT1-MMP act inh RFP | Env fusion inh | PABP polyA inh | CSC inhib | Yeast UUG start | others
CCOC(=O)CN1C(=O)N[C@@H](c2ccccc2)C(C(C)=O)=C1C | -2 | . | -4 | 0 | . | 5 | 3 | -17
O=C(Cn1[nH]c(=O)c2ccccc2c1=O)OCC(=O)c1ccccc1Cl | . | . | 4 | 6 | 6 | . | -2 | -13
CC(C)(C)c1csc(SCC(=O)Nc2ccc(Cl)cn2)n1 | -8 | i | -2 | -6 | -3 | 3 | -4 | 8
COc1ccc2c(c1)N(C[C@H](C)CN(C)C)c1ccccc1S2 | . | . | -6 | -2 | 0 | . | . | 11
O=C(N/N=C/c1c(Cl)[nH]c2ccccc12)c1ccc2c(c1)OCCO2 | -7 | i | 2 | 0 | -24 | 1 | 11 | -17
Cc1oc2c(CN3CCOCC3)c(O)ccc2c(=O)c1-c1ccc(Br)cc1 | -2 | i | 6 | 6 | . | -6 | 3 | 4
COc1ccc(-c2nnc(SCC(=O)NC3CCCCC3)o2)cc1OC | -9 | i | -1 | 1 | ? | 1 | -14 | -13
O=C(CCCN1C(=O)c2ccccc2C1=O)Oc1ccc(Cl)cc1 | -3 | i | -5 | -1 | -71 | 11 | -6 | 16
C(=C\c1ccccc1)/C=N/Nc1nc2ccccc2s1 | -8 | i | 1 | 2 | -291 | -12 | 31 | -8
Cc1ccc(-c2cc(C(=O)O)c3cc(Br)ccc3n2)s1 | -3 | i | 2&-1 | -1&-4 | -31&-35 | 19 | 8&0 | -15&-18
O=c1/c(=C\c2cc([N+](=O)[O-])cc([N+](=O)[O-])c2O)sc2nc3ccccc3n12 | 35 | . | -14 | 0 | . | -8 | 12 | -8
NS(=O)(=O)c1ccc(N2CCOCC2)c(C(=O)NCc2cccs2)c1 | . | . | -4 | 1 | 2 | . | -28 | -2
NC(=O)C1(N2CCCCC2)CCN(CC(=O)Nc2ccccc2Sc2ccccc2)CC1 | 4 | i | -5 | -10 | . | 0 | -5 | -12
Cc1ccnc2nc(C(=O)OCC(=O)NCc3cccc(Cl)c3)nn12 | . | . | 3 | 4 | -26 | . | -3 | -11
Cc1cccc(C(=O)O/N=C2\CCS(=O)(=O)c3sccc32)c1 | 12 | i | -3 | 0 | . | 3 | -18 | -10
COc1ccc(/C=N/NC(=O)CN2CCSCC2)cc1C | 1 | i | 3 | 2 | . | -4 | 1 | -16
CC1CCN(C(=O)c2ccc3c(c2NCCO)C(=O)c2ccccc2C3=O)CC1 | -5 | i | 31* | 8.3* | . | 2 | 10 | 1
C=CCNc1nc2c(c(=O)n(C)c(=O)n2C)n1CC | 6 | i | 0 | 2 | 21 | 0 | -2 | -22
COc1ccc(-c2n[nH]c(=S)n2-c2ccc(Br)cc2)cc1OC | 0 | i | 3 | -1 | -15 | 11 | -11 | 0
Cc1ccccc1S(=O)(=O)Cc1ccc(C(=O)NC2CCC(C)CC2)o1 (stereo unspecified) | -12 | i | -5 | -4 | 11 | -4 | -22 | -21
O=C(CN1CCSCC1)N1CCc2[nH]c3ccc(Br)cc3c2C1 | 53 | i | . | . | . | -1 | . | . | eIF4H FP inh retest=7;PABP polyA inh retest=0
Cn1c(N2CCCC2)nc2c1c(=O)n(Cc1cccc(F)c1)c(=O)n2C | -11 | i | 4 | -3 | -22 | 7 | -15 | -24
Cc1nc2c(C)cccn2c(=O)c1NC(=O)c1ccco1 | . | i | 0 | -1 | -3 | . | . | .
OCCNc1nc(N2CCCCC2)nc2ccccc12 | 3 | i | 1 | 4 | -2 | 5 | 34 | -1
COc1cccc(NC(=O)COc2nc3ccccc3nc2C)c1 | -2 | i | -5 | 3 | 17 | 12 | -11 | -17
O=C(C(Cc1ccccc1)n1cccc1)N1CCN(c2ccccc2)CC1 (stereo unspecified) | -7 | i | -4 | -5 | -19 | 3 | -12 | 5
COCCOC(=O)C1=C(C)N=C2SCCC(=O)N2C1c1cccc(Br)c1 (stereo unspecified) | -5 | i | -6 | -8 | 8 | -6 | -20 | 1
COc1ccccc1-c1nnc(NC(=O)c2ccc3c(c2)OCO3)s1 | 0 | . | -8 | -10 | -83 | -6 | 1 | .
CCCCC(=O)NC(=S)Nc1cccc(NC(=O)c2ccccc2)c1 | -3 | i | 0 | 2 | -15 | 2 | 10 | .
CC(C)n1nnnc1SCC(=O)Nc1ccc2c(c1)OCCO2 | 6 | i | . | . | -18 | 12 | 21 | .
COCCn1nnnc1C(CC(C)C)N1CCN(c2nc3ccccc3s2)CC1 (stereo unspecified) | -7 | i | -3 | 1 | -13 | 0 | 16 | .
CC(C)OC(=O)C1CC=CCC1C(=O)Nc1ccc(Cl)cc1 (stereo unspecified) | -6 | i | -1 | 2 | . | 6 | -9 | 0
CC(=O)N1c2ccc(S(=O)(=O)N3CCC(C(=O)N4CC(C)CC(C)C4)CC3)cc2CC1C (stereo unspecified) | . | i | 0 | -6 | 4 | . | -22 | -9
O=C(COC(=O)Cc1ccc([N+](=O)[O-])cc1)NC1CCCCCC1 | . | . | -2 | 0 | . | . | -16 | -11
COc1ccc(NC(=O)NCCN2CCCCC2)cc1 | 0 | i | 5 | -2 | -40 | 2 | -6 | -15
